Source: PubChem BioAssay
D2 PAM – human D2 receptor positive allosteric modulation. AID 624464. DiscoveRx D2 beta-arrestin cells, luminescence, 90 min; 100% = 57 uM dopamine signal. P14416. 360,000 compounds, 0.23% hits. potentiation, % (no concentration beside the values); active = potentiation of 50% or more; inconclusive = 30% to 50%; inactive = 30% or less;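 further: compound concentration not given in the record; tested on top of an EC20 dose of dopamine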
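PathHunter beta-arrestin assay in DiscoveRx D2 cells. Compounds were added with an EC20 of dopamine (50 nM final) for 90 min at 37 deg C. Luminescence was read 1 h after detection reagent, with 57 uM dopamine as the EC100 control.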
Six1-Eya2 inh – inhibitors of human Six1/Eya2 interaction | Q15475+O00167 | AlphaScreen GST-Six1/His-Eya2 binding, biochemical; hits give low values; control for the full effect not named in the record | activity change, % (test concentration not listed) | 360,000 compounds, 0.56% hits | AID 651725; in the data active = activity change below about -65%; inconclusive = about -30% to -65%; inactive = above about -30%; further: on the % scale 0 is the no-effect control and ±100 the full control effect
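Compounds are tested against tagged Six1 and Eya2 proteins bridged by glutathione donor and nickel acceptor beads; after a one-hour incubation at 37 °C without light, AlphaScreen emission is recorded.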
TRPV1 potentiator – enhances activation of the human vanilloid receptor TRPV1; Q8NER1; TRPV1-expressing cells, Fluo-8 calcium influx, capsaicin EC20 potentiation; host cell line not named in the record; control for the full effect not named in the record; potentiation, % at 8.33 µM; 320,000 compounds, 0.02% hits; active means potentiation above 80%; inconclusive means 30% to 80%; inactive means below 30%; further: 0% is about no effect
Target sequence (Q8NER1 whole entry, looked up): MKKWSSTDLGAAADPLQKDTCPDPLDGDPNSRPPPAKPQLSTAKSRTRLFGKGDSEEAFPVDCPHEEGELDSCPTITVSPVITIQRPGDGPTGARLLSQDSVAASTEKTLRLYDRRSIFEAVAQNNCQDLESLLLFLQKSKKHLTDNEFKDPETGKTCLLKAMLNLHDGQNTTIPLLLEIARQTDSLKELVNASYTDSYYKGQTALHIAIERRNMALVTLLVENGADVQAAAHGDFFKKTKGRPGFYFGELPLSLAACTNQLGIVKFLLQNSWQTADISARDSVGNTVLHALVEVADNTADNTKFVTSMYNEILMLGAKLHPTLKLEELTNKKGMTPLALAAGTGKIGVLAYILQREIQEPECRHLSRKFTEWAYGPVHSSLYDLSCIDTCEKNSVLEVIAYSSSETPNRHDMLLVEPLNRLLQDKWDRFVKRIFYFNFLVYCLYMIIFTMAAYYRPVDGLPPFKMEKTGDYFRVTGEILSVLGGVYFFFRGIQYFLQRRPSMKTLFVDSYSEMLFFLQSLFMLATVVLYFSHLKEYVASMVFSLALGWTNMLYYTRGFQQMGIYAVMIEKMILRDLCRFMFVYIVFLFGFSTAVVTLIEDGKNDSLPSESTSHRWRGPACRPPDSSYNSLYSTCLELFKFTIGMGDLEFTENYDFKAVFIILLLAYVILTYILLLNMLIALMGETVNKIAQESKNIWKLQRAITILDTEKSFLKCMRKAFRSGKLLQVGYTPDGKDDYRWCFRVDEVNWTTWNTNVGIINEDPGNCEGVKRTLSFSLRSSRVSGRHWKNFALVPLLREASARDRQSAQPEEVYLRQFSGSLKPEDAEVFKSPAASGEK
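Cells expressing TRPV1 were dye-loaded with Fluo-8 and read kinetically: 10 s baseline, 3 min after compound (agonist portion), then 2 min after EC20 capsaicin (allosteric enhancer portion). Calcium-bound dye fluorescence at 480/520 nm.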
TRPML1 inh – human mucolipin-1 channel inhibition; Q9GZU1; TRPML1-inducible cells, Ca2+ dye fluorescence, FDSS; hits give low values; inhibition of EC80 agonist-evoked calcium signal; activity change, negative = inhibition, % (concentration not given with the values); 390,000 compounds, 0.02% hits; AID 624415; in the data active means activity change below about -50%; inconclusive means about -30% to -50%; inactive means above about -30%;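 further: stimulus is agonist 54-4 at its EC80 concentration; on the % scale 0 is the no-effect control and ±100 the full control effect; the text of the record puts the active cut at -80%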
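Calcium fluorescence in TRPML1-DL cells induced overnight with Tet: a 110 s read after compound pin addition, then a 110 s antagonist read after challenge with 54-4 at 4 uM final (EC80).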
TRPML1 agonist – activates the human TRPML1 channel | activation, % (no concentration beside the values) | Q9GZU1 | TRPML1-expressing cells, Ca2+ dye fluorescence, FDSS; host cell line not named in the record; reference of the full effect not given here | 410,000 compounds, 0.12% hits | AID 624414; in the data active = activation above about 50%; inconclusive = about 30% to 50%; inactive = below about 30%; further: 0% is about no effect; the text of the record puts the active cut at 80%
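Tet-induced TRPML1-DL cells, 1,500 per well, cultured overnight, were loaded with a no-wash Ca2+ dye for 45–90 min. Calcium fluorescence was recorded on the FDSS for 110 s after compound addition, before the EC80 agonist (4 uM 54-4) was added.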
CtBP-E1A inh – inhibitors of CtBP/E1A interaction; 340,000 compounds, 0.49% hits; activity change, % (no concentration beside the values); AlphaScreen GST-E1A/His-CtBP binding, 1536-well; hits give low values; control for the full effect not named in the record; in the data active means activity change below about -65%; inconclusive means about -30% to -65%; inactive means above about -30%; further: on the % scale 0 is the no-effect control and ±100 the full control effect
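In 5 uL wells, 23 nL compound meets equimolar GST-E1A and His-CtBP (5X stock 125 nM each) for 2 h, 37 °C. Beads (5X, 50 ug/mL) then 1 h, 37 °C, dark.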
* = called active by the depositor; ? = inconclusive; / = no result given.

Every second line gives: D2 PAM, Six1-Eya2 inh, TRPV1 potentiator, TRPML1 inh, TRPML1 agonist, CtBP-E1A inh
> CCn1c(SCC(=O)NNC(=O)c2ccc(OC)cc2)nnc1C1CC1
→ -3, -4, 16, -19, -0.5, 0
> Cc1c(NC(=S)NC(NC(=O)C(C)C)C(Cl)(Cl)Cl)c(=O)n(-c2ccccc2)n1C (configuration not stated)
→ -10, 0, 4, -17, -0.7, 8
> C/C(=C(/NC(=O)c1ccccc1)C(=O)O)c1ccco1
→ -8, 6, 2, 6, 0.0, 13
> O=[N+]([O-])C(=C1Nc2ccccc2N1)C(Cl)=C(Cl)Cl
→ -15, -12, 4, -28, 0.9, 0
> COc1ccc(C2=CC(c3ccco3)n3ncnc3N2)cc1 (configuration not stated)
→ 3, 7, -21, 1, 11, -1
> COc1ccc(N(CC(=O)Nc2cc(OC)ccc2OC)S(=O)(=O)c2c(C)nn(C)c2C)cc1
→ -1, -2, /, 36, 1.5, -9
> N/C(Cn1cncn1)=N\NC(=O)c1ccc(Cl)cc1Cl
→ -7, 8, 5, 26, 1.0, 1
> CCOc1cc(-c2ccccc2)nc(N)n1
→ -15, 10, 0, 0, 0.6, 2
> COc1ccc(NCC(=O)N/N=C/c2ccc3c(c2)OCCO3)cc1
→ -15, -16, 17, 6, 0.0, -24
> COc1cc(-c2ncc3ccccn23)cc(OC)c1OC
→ 2, -5, 2, -11, 1.4, -7
> O=C(c1nc(SCc2ccc([N+](=O)[O-])cc2)n2ccccc12)C(F)(F)F
→ -7, -2, 12, 32, 2.9, -1
> Cc1cnc(C(=O)OCC(=O)c2c[nH]c3ccccc23)cn1
→ -2, -3, 14, -9, 2.1, 0
> Cc1cccc(OCC(=O)Nc2ccccc2C(F)(F)F)c1
→ -3, 27, 1, 0, 1.0, 25
> CCC(C)c1ccc(OCCCCN2CCOCC2)cc1 (configuration not stated)
→ -25, -4, -2, -2, -0.2, -3
> CCOc1cccc2cc(C(N)=O)c(=NCc3ccccc3)oc12
→ -9, 3, -4, -20, 0.1, 2

Laid out differently: 15 of the compounds above
Structure,D2 PAM,Six1-Eya2 inh,TRPV1 potentiator,TRPML1 inh,TRPML1 agonist,CtBP-E1A inh
CCn1c(SCC(=O)NNC(=O)c2ccc(OC)cc2)nnc1C1CC1,-3,-4,16,-19,-0.5,0
Cc1c(NC(=S)NC(NC(=O)C(C)C)C(Cl)(Cl)Cl)c(=O)n(-c2ccccc2)n1C (configuration not stated),-10,0,4,-17,-0.7,8
C/C(=C(/NC(=O)c1ccccc1)C(=O)O)c1ccco1,-8,6,2,6,0.0,13
O=[N+]([O-])C(=C1Nc2ccccc2N1)C(Cl)=C(Cl)Cl,-15,-12,4,-28,0.9,0
COc1ccc(C2=CC(c3ccco3)n3ncnc3N2)cc1 (configuration not stated),3,7,-21,1,11,-1
COc1ccc(N(CC(=O)Nc2cc(OC)ccc2OC)S(=O)(=O)c2c(C)nn(C)c2C)cc1,-1,-2,/,36,1.5,-9
N/C(Cn1cncn1)=N\NC(=O)c1ccc(Cl)cc1Cl,-7,8,5,26,1.0,1
CCOc1cc(-c2ccccc2)nc(N)n1,-15,10,0,0,0.6,2
COc1ccc(NCC(=O)N/N=C/c2ccc3c(c2)OCCO3)cc1,-15,-16,17,6,0.0,-24
COc1cc(-c2ncc3ccccn23)cc(OC)c1OC,2,-5,2,-11,1.4,-7
O=C(c1nc(SCc2ccc([N+](=O)[O-])cc2)n2ccccc12)C(F)(F)F,-7,-2,12,32,2.9,-1
Cc1cnc(C(=O)OCC(=O)c2c[nH]c3ccccc23)cn1,-2,-3,14,-9,2.1,0
Cc1cccc(OCC(=O)Nc2ccccc2C(F)(F)F)c1,-3,27,1,0,1.0,25
CCC(C)c1ccc(OCCCCN2CCOCC2)cc1 (configuration not stated),-25,-4,-2,-2,-0.2,-3
CCOc1cccc2cc(C(N)=O)c(=NCc3ccccc3)oc12,-9,3,-4,-20,0.1,2

Some of the entries so far, tab-delimited:
Compound	D2 PAM	Six1-Eya2 inh	TRPV1 potentiator	TRPML1 inh	TRPML1 agonist	CtBP-E1A inh
C/C(=C(/NC(=O)c1ccccc1)C(=O)O)c1ccco1	-8	6	2	6	0.0	13
O=[N+]([O-])C(=C1Nc2ccccc2N1)C(Cl)=C(Cl)Cl	-15	-12	4	-28	0.9	0

(further entries)
Every second line gives: D2 PAM, Six1-Eya2 inh, TRPV1 potentiator, TRPML1 inh, TRPML1 agonist, CtBP-E1A inh
> C/C(CC(=O)Nc1c(C)cc(C)cc1C)=N\NC(=O)c1cnccn1
→ -2, -1, -8, 27, 0.0, -4
> N#Cc1cc2c([nH]c1=O)CCCC2
→ -8, 10, 3, -9, 0.7, 8
> CCCOc1ccc(/C(O)=C2/C(=O)C(=O)N(CCN(C)C)C2c2ccc(OC)c(OC)c2)cc1 (configuration not stated)
→ -7, 4, 5, 13, 2.1, 3
> Cc1ccc(S(=O)(=O)N2CCN(C(=O)c3cc4c(C)nn(-c5ccccc5)c4s3)CC2)cc1
→ 0, -10, 1, ?, 0.0, -20
> COC(=O)CC1SC(=O)NC1=Nc1ccc(OC)cc1 (configuration not stated)
→ -5, -1, 6, 0, -0.9, 9
> COc1cc(NS(=O)(=O)c2ccccc2)ccc1-n1nc(C)cc1C
→ 7, 0, -2, -3, -0.3, -1
> Cc1cccnc1Nc1nc(-c2ccccc2)cs1
→ 0, -5, -15, -14, 2.0, 0
> O=C(O)CCCC(=O)NNC(=O)c1cccc(Br)c1
→ 1, 8, 1, -6, 0.6, 3
> CC(=O)Nc1ccc(NC(=O)CCS(=O)(=O)c2ccc3c(c2)oc(=O)n3C)cc1
→ -10, 2, -1, -3, -0.3, 4
> O=C(Nc1ccccc1F)C1CCCN1S(=O)(=O)c1cccc2nsnc12 (configuration not stated)
→ 1, 0, -4, -5, 0.7, 6
> Cc1cccc(C(=O)NC(C(=O)Nc2nc(-c3ccccn3)cs2)C(C)C)c1 (configuration not stated)
→ -22, ?, ?, 15, 3.5, /
> Cc1ccc(-c2csc(Cc3nc(-c4ccc5c(c4)CCC(=O)N5)cs3)n2)cc1
→ -7, -11, 10, -14, 0.6, -12
> OCC1CCN(Cc2nc(Cc3ccccc3Cl)no2)CC1
→ -3, 6, -23, 3, -0.3, 0
> CN(C(=O)COC(=O)c1ccccc1C(=O)N1CCN(c2ccccc2)CC1)c1ccccc1
→ -35, 2, 14, -14, -0.1, -3
> Cc1cc(Cl)c(OCCOCCN2CCN(C)CC2)c(Br)c1
→ -11, -1, -1, -3, 0.0, 2
> COc1cc(C)c(NC(=O)C2CCN(S(=O)(=O)c3cccs3)CC2)cc1OC
→ -4, 6, -13, -7, 0.2, 0
> CCOc1ccc(NC(=O)CN2C(=O)COc3ccc(Cl)cc32)cc1
→ 4, 2, /, -19, 0.9, 1
> COc1cccc(Cn2c(=O)c3ccccc3n3nc(C)cc23)c1
→ 0, 1, 7, 21, 1.9, 5
> CC(C)NC(=O)CSc1nnc(C2CC2)n1-c1ccccc1
→ 3, -4, 8, 11, -0.1, 5
> Cc1nn(CCO)c2nc(-c3cccs3)cc(C(F)(F)F)c12
→ 1, 1, 5, -18, 0.0, -8
> Cc1cc(OC(C)C(=O)N2C[C@H]3C[C@@H](C2)c2cccc(=O)n2C3)c2c(C)c(C)c(=O)oc2c1 (some centres not stated)
→ -6, 0, -11, /, /, 8
> C[C@H]1CC[C@]2(O[C@@H](CCO)C[C@@H](O)[C@@H]2O)O1
→ -9, -8, /, -16, 0.2, -7
> COc1ccc(NC(=O)CN2C(=O)CSC(C)C2=O)c(OC)c1 (configuration not stated)
→ -1, 0, -19, -10, -0.6, /
> FC(F)(F)c1cc(Cl)c2nnc(C(F)(F)Cl)n2c1
→ -13, 2, 7, 31, 0.9, /
> CC(C#Cc1c([C@@H](C)Oc2ccccc2)nnn1Cc1ccccc1)Oc1ccccc1 (some centres not stated)
→ 21, 30, -3, -15, -0.8, 6
> Cn1nccc1C(=O)N1CCc2c([nH]c3ccccc23)C1c1ccc(F)cc1 (configuration not stated)
→ -1, -7, -6, 11, 0.7, -27
> N=c1c(S(=O)(=O)c2ccccc2)cc2c(=O)n3ccccc3nc2n1C1CCCCC1
→ -7, -15, /, -4, 0.4, -18
> Nc1nc[nH]c(=O)c1N=Cc1ccccc1
→ -8, -14, -7, -5, -0.8, -6
> OC(Cc1ccncc1)c1ccccc1Cl (configuration not stated)
→ -4, -9, /, 0, 1.2, -2
> CC(/C=N/NC(=O)CN1CCN(Cc2ccc(Cl)cc2)CC1)=C\c1ccco1
→ -16, -13, -4, 12, 0.8, -16
> O=C(COc1ccc(Cl)cc1[N+](=O)[O-])N/N=C/c1cccs1
→ -49, -8, 3, 4, 1.6, /
> CCOC(=O)N1CCN=C1SCc1ccc(Cl)c(Cl)c1
→ -7, 25, ?, -3, 0.4, -17
> CC(C)OC(=O)c1cccnc1SCc1cc(=O)n2ccccc2n1
→ -3, 3, -14, -7, 1.8, 5
> O=C(CCC(=O)N1CCOc2ccccc21)NCCc1ccccc1
→ -10, 5, -5, 47, -0.1, 7
> CC(OC(=O)c1ccc(-n2cnnn2)cc1)C(=O)N(C)c1ccccc1 (configuration not stated)
→ -13, 1, 7, 14, -0.6, 1
> Oc1ccc(-c2c(-c3ccsc3)sc3ccccc23)cc1
→ -1, -13, -8, 1, -0.2, -4
> CC(C)=CCN1CCN(Cc2cn(C(C)C)c3ccccc23)CC1CCO (configuration not stated)
→ -72, 0, 6, /, /, /
> O=C(CSc1n[nH]c(-c2ccccc2O)n1)NC1CCCCC1
→ -4, -5, -1, -3, 0.9, -3
> CC1=NOC(=O)/C1=C/c1ccc(O)c(Cl)c1
→ -5, 7, 12, 11, 0.0, -1
> Cc1ccc(/C=N/N2CCN(C3c4ccccc4-c4ccccc43)CC2)s1
→ -3, 4, 14, 4, 0.4, 4
> COc1ccc(OC)c(-c2csc(N(CC3CCCO3)C(=O)Cc3ccccc3)n2)c1 (configuration not stated)
→ -37, -10, 12, 63, 3.3, /
> CC1=NN(C(=O)CSCc2ccccc2)C(O)(c2ccc(Cl)cc2)C1 (configuration not stated)
→ -11, -4, 10, -15, 3.2, /
> COc1ccc([C@H]2CC(=O)c3c(O)cc(O)cc3O2)cc1O
→ -5, 21, -3, -11, -0.3, 6
> COc1cccc(C(=O)N2CCOCC2)c1
→ 2, 20, -10, -2, -0.7, 0
> COc1cc(/C=C/CO)cc(OC)c1OC/C=C(\C)CCC=C(C)C
→ -1, -5, -6, -6, 0.8, -1
> N#CCCN(Cc1ccccc1)C(=S)NC(=O)c1ccccc1
→ -15, 2, -15, 2, 0.2, 1
> O=C(CN1c2cccc3cccc(c23)S1(=O)=O)NC1CCCCC1
→ -3, -28, /, 6, -0.2, -1
> CCOC(=O)c1ccc2c(c1)N(CC#N)C(=O)C(C)(C)O2
→ -5, 2, -14, 3, 0.3, 1
> Cc1cc(C(C)(C)C)cc(C)c1S(=O)(=O)N1CCN(C(=O)c2cc([N+](=O)[O-])c[nH]c2=O)CC1
→ -9, -10, 8, 16, -0.3, 8
> COc1cc2c(cc1NC(=O)c1cccnc1)CCCC2
→ ?, 6, -16, -2, -0.5, -10
> O=C(CN1C2=NCCCN2c2ccccc21)c1cccs1
→ -5, 8, 1, -6, -0.9, -1
